Screening data from PubChem BioAssay.
RanGTP-Impb inh – disruptors of Ran-importin-beta complex formation – biochemical, FRET, CFP-Ran, YFP-importin-beta, homogeneous, primary screen | cell-free CFP-Ran/YFP-importin-beta FRET ratio | inhibition, % (test concentration not listed) | hit rate 1.1% among 300,000 | AID 2216;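 active = most replicates above 15%; inconclusive = exactly half above 15%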;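 note: 0% = DMSO wells and 100% = Ran loaded with GDP instead of GTP; wells of about 40 µL received 100 nL stock; the first replicate is given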
E coli growth – blocks Escherichia coli growth; OD600, 23 h; active compounds read low; OD600 absorbance (no concentration beside the values); hit rate 0.21% among 330,000; AID 1053175;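 active = OD600 absorbance below the run mean of sample wells minus 3.6 SD, in any replicate, cut at about 0.56 in these data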;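 note: stock transfer was 300 nL into about 60 µL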
FGF22 binding – binders of recombinant human FGF22 by thermal shift. hit rate 1.5% among 340,000. calls only at 9.99 µM. SYPRO orange fluorescence; percent of sucrose octasulfate shift, DMSO zero. AID 651658;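 active = melting point raised past a set limit in the mean and every replicate; inconclusive = no clear call; three in four hits are not shown here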
Target sequence (Q9HCT0 whole entry, looked up): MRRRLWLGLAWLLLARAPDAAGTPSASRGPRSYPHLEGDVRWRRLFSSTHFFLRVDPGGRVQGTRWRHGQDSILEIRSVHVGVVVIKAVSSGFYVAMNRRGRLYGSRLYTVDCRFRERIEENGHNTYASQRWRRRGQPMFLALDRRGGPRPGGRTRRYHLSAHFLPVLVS
HNF4A DNA FP – change in binding of human HNF4 alpha to DNA; HNF4a-FITC DNA binding, fluorescence polarization, 1 h; activity change, % at 10 µM; hit rate 0.3% among 360,000; AID 1224865; in the data active = activity change above about 30%, passing the limit was not always enough;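 note: controls were the assay level and a saturating level of protein; the project sought stronger binding though the title names inhibitors; some compounds called inactive have numbers as strong as hits; positive values seem to mean higher polarization but the record does not say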
UCH37 inh – blocks the human deubiquitinase UCH37; purified proteasome/UCH37, Ub-AMC cleavage fluorescence; inhibition, % (no concentration beside the values); hit rate 0.33% among 330,000; AID 588478;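 active = mean of two replicates above 20%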;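 note: 0% = compound-free wells with enzyme and 100% = wells lacking proteasome; stock transfer was 100 nL into about 20 µL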
Target sequence (Q9Y5K5 whole entry, looked up): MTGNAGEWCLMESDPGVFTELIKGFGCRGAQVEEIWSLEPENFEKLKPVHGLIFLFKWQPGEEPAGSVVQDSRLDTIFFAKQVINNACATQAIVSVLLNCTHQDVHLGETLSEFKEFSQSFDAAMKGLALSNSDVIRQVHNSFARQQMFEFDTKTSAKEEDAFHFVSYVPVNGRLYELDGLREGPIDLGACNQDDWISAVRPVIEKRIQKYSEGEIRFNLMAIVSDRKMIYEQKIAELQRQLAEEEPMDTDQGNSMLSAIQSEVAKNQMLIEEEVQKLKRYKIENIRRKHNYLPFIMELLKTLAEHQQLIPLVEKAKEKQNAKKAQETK
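Material: human UCH37 enzyme supplied as purified proteasome complex. Measure: % inhibition of Ub-AMC cleavage fluorescence. Medium: pH 7.4 Tris-HCl (50 mM) with ovalbumin, ATP-MgCl2, DTT. Times: 30 min preincubation with enzyme, 25 min cleavage at room temperature. Detection: AMC fluorescence intensity at 355/460 nm.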
MLL AF4-AF9 inh – blocks AF4 peptide binding to human AF9. AlphaScreen, biotin-AF4 peptide binding to FLAG-AF9. hit rate 0.47% among 350,000. inhibition, % at 10 µM. P42568;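 active = every replicate reaching a set inhibition limit, whatever the replicate mean, cut at about 25% in these data; inconclusive = mean inhibition reaches that limit but some replicates miss it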;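 note: 0% = plate neutral control median and 100% = total signal loss; the record names both 10 and 1 µM as test concentration; the first replicate is given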
Target sequence (P42568 whole entry, looked up): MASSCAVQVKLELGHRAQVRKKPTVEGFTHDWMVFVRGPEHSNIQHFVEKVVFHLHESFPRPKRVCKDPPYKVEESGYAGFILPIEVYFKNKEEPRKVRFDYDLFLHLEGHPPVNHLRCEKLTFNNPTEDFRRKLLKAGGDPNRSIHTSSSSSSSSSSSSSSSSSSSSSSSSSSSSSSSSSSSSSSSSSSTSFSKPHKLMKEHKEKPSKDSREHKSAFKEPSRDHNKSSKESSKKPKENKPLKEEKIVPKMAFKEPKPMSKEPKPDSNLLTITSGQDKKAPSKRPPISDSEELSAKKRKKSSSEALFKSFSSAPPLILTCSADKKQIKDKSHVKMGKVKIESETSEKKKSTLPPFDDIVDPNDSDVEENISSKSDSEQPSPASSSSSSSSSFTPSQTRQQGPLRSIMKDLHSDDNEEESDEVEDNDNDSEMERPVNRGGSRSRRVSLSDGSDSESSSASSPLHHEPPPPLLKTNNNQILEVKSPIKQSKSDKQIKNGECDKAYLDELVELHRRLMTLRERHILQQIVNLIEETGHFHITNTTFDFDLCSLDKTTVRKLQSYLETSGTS
Vif A3G – HIV-1 Vif–A3G interaction blockers – biochemical, TR-FRET, GST-Vif 1-94, biotin-A3G peptide, dose response retest, primary screen (AID 1117319). TR-FRET GST-Vif / biotin-A3G peptide binding; higher % means a stronger effect; test concentration not given here; strong numbers were not always called active. inhibition, %, or IC50 in µM where a hit was titrated. hit rate 0.57% among 260,000;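 active = above the screen mean plus three standard deviations and confirmed in dose response; inconclusive = results disagree or hit not tested in dose response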;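 note: Vif residues 1-94 fused to GST binding biotinylated APOBEC3G peptide 110-148; 0% = full assay without inhibitor and 100% = GST in place of GST-Vif; retest series ran down from 100 µM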
* hit, by the source's call; i = inactive; ? = inconclusive; nt = no result given; & = joins results of further samples. This is a subset (hit frequency here may not be typical).

SMILES	RanGTP-Impb inh	E coli growth	FGF22 binding	HNF4A DNA FP	UCH37 inh	MLL AF4-AF9 inh	Vif A3G
CSc1ncccc1C(=O)OCC(=O)c1cccc(Br)c1	-0.3	0.65	i	1.2	1.4	?	-10%
Nc1nc2c(ncn2[C@@H]2O[C@H](CNCc3cnc(N4CCOCC4)s3)[C@@H](O)[C@H]2O)c(=O)[nH]1	nt	nt	i	3.7	nt	-0.3	nt
O=C(O)c1ccc(N=Nc2c(-c3ccccc3)[nH]oc2=O)cc1	-1.9	0.68	i	-4.6	14	-0.6	-1%
CC(CN1CCOCC1)OC(=O)c1ccccc1 (stereo unspecified)	1.1	0.65	i	-5.8	0.1	-2.3	nt
CC(C)C[C@H](NC(=O)OC(C)(C)C)C(=O)N1CCC(C(=O)N[C@@H](Cc2c[nH]c3ccccc23)C(=O)O)CC1	-2.1	0.65	i	-1.9	1.7	3.6	0%
Cc1cnc(C(=O)OCC(=O)Nc2cc(Cl)ccc2C#N)cn1	nt	0.72	i	7.2	0.7	1.1	-4%
Cc1cccc(C)c1NC(=S)N(CCCN1CCCCC1)Cc1ccco1	?	0.69	i	-0.7	-0.8	-0.1	4%
C=CCNC(=O)c1ccccc1S(=O)c1ccccc1C#N (stereo unspecified)	-1.4	0.76	nt	-1.7	3.8	nt	18%
Cc1ccc(-n2nc(C)c3c(C)c(CCC(=O)O)c(C)nc32)cc1C	0.1	0.65	i	-2.2	-67	-0.5	-6%
Cc1cccc(OCc2nnc(SCC(=O)NCc3ccc4c(c3)OCO4)o2)c1	nt	nt	i	-0.2	nt	1.7	1%
COc1ccc(C(CNC(=O)c2cccc(Br)c2)N2CCCC2)cc1 (stereo unspecified)	4.8	0.67	nt	2.7	1.2	nt	-4%
COC(=O)c1ccc(-c2noc(CN3CCCC(CNC(C)=O)C3)n2)cc1 (stereo unspecified)	3.5	0.7	i	2.8	4.2	-9.1	nt
S=C(N/N=C/c1ccc2c(c1)OCO2)NC1CC2CCC1C2 (stereo unspecified)	-0.8	nt	i	2.6	nt	nt	nt
CC1CCCN(C2(O)C(=O)Nc3c(C(F)(F)F)cccc32)C1 (stereo unspecified)	-2.1	0.65	i	1.8	3.5	-18	nt
CC(NC(=O)c1cc(-c2ccncc2)nc2ccc(Cl)cc12)C1CCCO1 (stereo unspecified)	6.3	0.65	i	3.7	-3.4	-3.0	5%
O=C(COc1ccccc1Br)N1CCN(c2ccccc2)CC1	-2.3	0.63	nt	-0.3	3.7	nt	4%
COc1ccc(CNC(=O)CN(c2ccc(C)cc2)S(=O)(=O)c2c(C)nn(C)c2C)cc1	1.5	0.71	i	1.7	-0.9	-0.1	nt
O=C(NCC1CCCO1)C(=O)N/N=C/c1cc(Cl)ccc1O (stereo unspecified)	-3.9	nt	i	0.2	nt	1.6	12%
CCN(CC(=O)N1CCCCCC1)S(=O)(=O)c1ccc(C)cc1	?	0.67	i	4.1	-2.5	-2.0	nt
COC(=O)CNS(=O)(=O)c1ccc(C)cc1	-4.0	0.73	nt	-0.5	1.0	nt	-1%
COc1ccc(OC)c(NC(=O)CCCNC(=O)c2ccc(Cl)cc2)c1	-1.6	0.66	i	-1.6	1.9	-8.4	2%
CCC(C(=O)Nc1cc(C)nn1-c1nc(C)cc(C)n1)c1ccccc1 (stereo unspecified)	0.2	0.7	nt	1.1	2.5	nt	26%
Cc1ccccc1C(=O)N1CCC(C(=O)Nc2ccc(C)c(S(=O)(=O)N3CCCCC3)c2)CC1	nt	0.66	i	0.0	0.4	3.7	-11%
O=C(NCC1OCCc2ccccc21)C1COc2ccccc2O1 (stereo unspecified)	-1.6	0.68	nt	3.1	2.8	nt	nt
COc1ccccc1NC(=O)c1ccc(Cl)c(S(=O)(=O)N2CCOCC2)c1	-2.8	0.68	nt	0.8	-0.8	nt	25%
Cc1sc2ncnc(N3CCC(C(=O)Nc4cc(C(F)(F)F)ccc4OCC(F)(F)F)CC3)c2c1C	nt	0.68	i	6.8	3.6	-0.4	nt
Nc1nc2ccc([N+](=O)[O-])c(N)c2s1	-3.5	0.69	nt	1.2	12	nt	-2%
O=C(CCS(=O)(=O)c1cccc2nsnc12)N1CCN(Cc2ccc3c(c2)OCO3)CC1	-0.4	0.73	nt	-1.5	-1.1	nt	16%
CC(=O)Nc1ccc(SCC(=O)N(C)CC(=O)Nc2ccccc2Cl)cc1	nt	0.66	i	-0.3	6.6	-1.4	-13%
CNc1c(NS(=O)(=O)c2ccc(C3CCCCC3)cc2)c(=O)oc2ccccc12	3.0	0.71	i	1.2	-30	-3.8	nt
OCCN(Cc1ccccc1)C(=S)Nc1ccc(F)cc1	-0.2	0.65	i	-0.4	1.4	-2.0	-5%
COc1cccc(NC(=O)CNC(=O)c2ccc([N+](=O)[O-])cc2)c1	0.8	0.67	i	-2.2	5.2	4.9	29%
CCOC(=O)c1cc(NC(=O)C2C3C=CC(O3)C2C(=O)O)cc(C(=O)OCC)c1 (stereo unspecified)	-0.7	0.71	i	2.7	0.3	-8.0	-1%
CCCS(=O)(=O)NC(=O)C1(C)CCCN(C(=O)c2cc(OC)c(OC)c(OC)c2)C1 (stereo unspecified)	nt	nt	i	-1.0	nt	0.2	nt
O=C(CN1C(=O)/C(=C2\SC(=S)N(CCS(=O)(=O)O)C2=O)c2ccccc21)Nc1cccc(Br)c1	7.7	0.71	i	14	18	6.8	nt
CCOC(=O)c1c(-c2ccc(OC)cc2)csc1/N=C/C1C(=O)CCCC1=O	3.9	nt	i	3.9	nt	0.1	32%
O=NN(CCCl)C(=O)NCCCl	nt	0.68	i	0.6	0.4	1.4	nt
CC(C)c1ccc(CN2C(=O)NC3(CCCCCC3)C2=O)cc1	-0.7	0.65	i	0.8	2.9	-4.7	-3%
CCN(Cc1ccccc1)C(=O)C1CCC(CNc2c(N3CCOCC3)c(=O)c2=O)CC1 (stereo unspecified)	6.5	0.69	i	0.9	5.0	-3.9	-6%
Cc1noc(C)c1C(=O)OC(C)C(=O)Nc1ccc(S(=O)(=O)NC(C)C)cc1 (stereo unspecified)	3.1	0.71	nt	-1.5	3.1	nt	-5%
Cc1ccc(S(=O)(=O)N2C[C@H]3C(=O)C[C@@H](c4ccccc4)N(S(=O)(=O)c4ccc(C)cc4)[C@H]3C[C@H]2c2cccc(Cl)c2)cc1	nt	nt	i	0.2	nt	-0.7	-1%
COc1ccccc1-c1noc(CCC(=O)Nc2ccccc2Cl)n1	2.1	0.67	i	1.3	6.2	-37	5%
COc1ccc2c(c1)C(c1ccccc1)=NNC(c1ccco1)=N2	2.7	0.7	i	-0.8	4.5	0.3	-2%
Cc1ccc(NC(=O)C2CCCN(S(=O)(=O)c3cccs3)C2)cc1 (stereo unspecified)	1.6	0.72	nt	2.9	4.9	nt	-4%
COC(=O)c1ccccc1S(=O)(=O)N(CCCN1CCOCC1)Cc1cccs1	-2.3	0.71	nt	-2.0	2.9	nt	27%
COc1ccc(/C=N/NC(N)=S)cc1OC(=O)c1cccc2ccccc12	1.5	nt	nt	-1.0	nt	nt	23%
O=C(C/C=N\OCc1ccc([N+](=O)[O-])cc1)Nc1ccc(F)cc1F	4.3	nt	i	3.9	nt	1.6	-5%
COc1ccc(CCNC(=O)CSc2nc(O)c(CC(C)C)c(=O)[nH]2)cc1OC	3.5	0.76	nt	-1.1	5.3	nt	1%
CC(C(=O)NCc1cccs1)N1C(=O)c2ccccc2C1=O (stereo unspecified)	3.2	0.7	nt	1.0	7.0	nt	23%
O=C(Nc1c2c(nn1-c1ccc([N+](=O)[O-])cc1)CS(=O)(=O)C2)c1ccccc1F	1.7	0.7	i	-1.8	1.6	1.4	6%
Cc1ccc(CSc2nc3c(c(=O)[nH]c(=O)n3C)n2CCC(C)C)cc1	6.1	0.69	i	1.6	2.2	5.8	0%
C=CC[C@H]1C=C[C@@H](C(C(=O)OC)C(=O)OC)CN1C(C)=O	nt	nt	i	3.7	nt	-4.2	nt
COc1ccc(/C=C2\Oc3cc(OCC(=O)N4CCC[C@H]4C(=O)O)ccc3C2=O)c(OC)c1OC	7.1	0.67	i	2.0	13	1.0	nt
CCN(CC)S(=O)(=O)c1ccc(/C=C/C(=O)OCC(=O)Nc2cccc3ccccc23)cc1	0.5	0.73	i	-1.8	-1.9	4.7	6%
Cc1cc(OCc2cc(C(=O)N(C)CCOc3ccccc3)no2)cc(C)c1Cl	9.3	0.68	i	4.2	0.5	-0.1	nt
CC(C)NC(=O)CN(CCc1ccccc1)S(C)(=O)=O	0.1	0.66	nt	-1.6	1.1	nt	-4%
Nc1c(C(=O)c2ccccc2)oc2ccc([N+](=O)[O-])cc12	-0.3	0.73	i	-2.7	7.1	4.4	-1%
Cc1ccc(-c2nnc(-c3ccc(NC(=O)Cc4cccs4)cc3)o2)cc1	-0.2	0.7	nt	-5.5	-31	nt	-4%
CC1=C(C(=O)N2CCCCCC2)CC(CC(=O)NCC2CCCCC2)C(=O)N1Cc1ccccc1 (stereo unspecified)	nt	nt	i	-4.8	nt	-3.2	nt
NCCSc1c(-c2ccc(Cl)cc2)[nH]c2ccccc12	-15	0.59	i	2.6	-21	5.9	-1%
Remaining list, next part.
SMILES	RanGTP-Impb inh	E coli growth	FGF22 binding	HNF4A DNA FP	UCH37 inh	MLL AF4-AF9 inh	Vif A3G
CCOC(=O)c1ccc(NC(=S)N2CCN(CCO)CC2)cc1	2.0	0.65	i	-0.8	5.9	-0.4	-2%
Cc1cccc(C(=O)Nc2ccc3ccccc3c2)c1	1.7	0.68	i	2.7	2.4	-4.3	2%
CCN(CC(=O)NCc1cccs1)c1nnnn1-c1ccccc1	-3.1	0.7	nt	1.2	2.5	nt	3%
OC(CCCC(O)c1ccccc1)c1ccccc1 (stereo unspecified)	nt	0.72	i	0.0	0.3	2.7	-1%
O=C1N=C(N2CCCC2)S/C1=C\c1cccc(Br)c1	2.2	nt	nt	-3.2	-60	nt	4%
CC1CN(C(=O)CCC(=O)NCCc2ccccc2)c2ccccc2O1 (stereo unspecified)	-0.4	0.7	i	0.4	1.2	-7.2	nt
CCOC(=O)C1(C(=O)OCC)NC(=O)CC1CC (stereo unspecified)	nt	0.68	i	0.9	-0.7	-1.4	-8%
COC(=O)c1ccc(N2C(=O)CC(N3CCOCC3)C2=O)cc1 (stereo unspecified)	0.1	0.77	nt	1.3	-1.7	nt	2%
CCc1ccc(NC(=O)CCc2nnc3ccc(N4CCC5(CC4)OCCO5)nn23)cc1	2.5	0.66	i	0.1	1.6	4.6	nt
CC(=O)C1C(=O)c2c(cccc2[N+](=O)[O-])C1=Nc1ccc(S(N)(=O)=O)cc1 (stereo unspecified)	-2.6	0.69	i	-3.5	5.6	-5.3	?
Cc1ccccc1NS(=O)(=O)c1ccc2c3c(cccc13)C(=O)N2C	6.7	0.73	i	0.2	-16	-1.4	5%
C[C@H](CO)N1C[C@H](C)[C@@H](CN(C)S(C)(=O)=O)Oc2ccc(NC(=O)Nc3ccc4c(c3)OCO4)cc2C1=O	nt	nt	i	-0.2	3.4	-1.0&3.6	nt

Rewritten with two lines to a compound: part of the list above
Below each compound – RanGTP-Impb inh, E coli growth, FGF22 binding, HNF4A DNA FP, UCH37 inh, MLL AF4-AF9 inh, Vif A3G
- CCc1ccc(NC(=O)CCc2nnc3ccc(N4CCC5(CC4)OCCO5)nn23)cc1
 : 2.5, 0.66, i, 0.1, 1.6, 4.6, nt
- CC(=O)C1C(=O)c2c(cccc2[N+](=O)[O-])C1=Nc1ccc(S(N)(=O)=O)cc1 (stereo unspecified)
 : -2.6, 0.69, i, -3.5, 5.6, -5.3, ?
- Cc1ccccc1NS(=O)(=O)c1ccc2c3c(cccc13)C(=O)N2C
 : 6.7, 0.73, i, 0.2, -16, -1.4, 5%
